High-throughput results deposited in PubChem by several laboratories.
PrP 5UTR inh – suppresses PrP 5' UTR mRNA reporter expression | cell-based PrP 5' UTR mRNA reporter, plate reader | inhibition, % (concentration not given with the values) | hit rate 0.35% among 340,000;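 active means every replicate at 50% or more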;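 further: 0 = median of the neutral control wells; tested in H4 reporter cells; numbers are from one replicate; inactives centre near -14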
RN4220 kill – S. aureus RN4220 growth inhibition; OD600, 16 h; inhibition, % (concentration not given with the values); hit rate 0.33% among 330,000; AID 1259311;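 active means z-score of -3 or lower and OD600 up to 0.18 on both plates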;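 further: plate controls were untreated cells for no effect and reference antibiotic for full effect; stock transfer was 100 nL into about 80 µL; one replicate is shown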
Autofluor counter – flagged as autofluorescent in microsphere protease counterscreen. AID 624483. compound autofluorescence counterscreen, microsphere flow cytometry; hits give high values. hit rate 3.1% among 360,000. fluorescence intensity (no concentration beside the values);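 active means at least 3 SD above the mean of all compounds, about 16000 in these data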;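 further: 100 nL of 1 mM stock went into each well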
BJeLR lethal – kills HRASV12-expressing BJeLR cells. inhibition, % (no concentration beside the values). hit rate 0.17% among 300,000. BJeLR (HRASV12) viability, CellTiter-Glo ATP luminescence, 48 h; reference of the scale not given here;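 active means replicate mean above 50%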;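 further: 50 nL library stock added to about 25 µL; numbers are from one replicate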
Mtb hypoxia inh – reduces hypoxia-regulated biosensor signal in M. tuberculosis; AID 1159583; hit rate 0.1% among 300,000; fluorescence inhibition, % (test concentration not listed); M. tuberculosis hypoxia-regulated fluorescent reporter, fluorescence;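 active means 35 to 45% if threefold the growth effect, above 45% if 1.5-fold the growth effect; inactive means the rest, general growth blockers included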;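 further: wells of about 50 µL received 100 nL stock; 0% = vehicle wells and 100% = reference inhibitor wells; whole bacteria with a GFP reporter of the hypoxia response; strong numbers were not always called active; many hits fall short of the cut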
Sa ugtP lethal – growth inhibition of S. aureus ugtP deletion strain | AID 1259309 | S. aureus RN4220 ugtP deletion, OD600 growth, 16 h; some inactives read as strong as hits | growth inhibition, % (concentration not given with the values) | hit rate 0.54% among 330,000;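 active means z-score under -3 and OD600 up to 0.15 on both plates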;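 further: plate controls were untreated wells for no effect and antibiotic for full effect; wells of about 80 µL received 100 nL stock; the first replicate is given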
Mtb hypoxia inh growth – recorded beside Mtb hypoxia inh, whose call it bears; growth inhibition, %; measured here: M. tuberculosis growth (absorbance);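 0% = vehicle and 100% = reference antibiotic; read after six days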
The depositor's hits bear a star; . = no result given. Not a hit list; 4% or so of the library scored in one or more.

item	SMILES	PrP 5UTR inh	RN4220 kill	Autofluor counter	BJeLR lethal	Mtb hypoxia inh	Mtb hypoxia inh growth	Sa ugtP lethal
1	COC(=O)C1=C(C)N(Cc2ccccc2)C(=NCc2cc(OC)c(OC)c(OC)c2)NC1c1ccc(Br)cc1 (stereo not given)	.	0.1	.	.	-12	0	-2
2	CCC(CC)C(=O)NCc1cccnc1	-13	1.9	5350	-3	1	-4	2
3	O=C(CCc1ccc(S(=O)(=O)N2CCOCC2)cc1)NCCc1ccccn1	-11	3.6	21908*	0	6	6	4
4	CCOc1ccc(-n2c(SCC(=O)Nc3ccccc3CC)nc3n[nH]c(C)c3c2=N)cc1	.	8.6	.	-3	-10	2	-1
5	CC(C)n1cc(C2CC3CN(Cc4cccc(Cl)c4)C(=O)[C@]34CCCN24)cn1 (stereo not given in full)	.	2.0	.	.	-1	-1	-1
6	CCC(=O)c1ccc(OCC(=O)OCC(=O)Nc2ccc3c(c2)OCCO3)cc1	-15	6.2	3569	.	10	7	8
7	Cc1ccc(CCC(=O)Nc2ccc(Br)cc2)o1	5	3.3	3609	-2	-4	4	0
8	O=C(COc1ccc([N+](=O)[O-])cc1)Nc1ccc2c(c1)nc1n2CCOC1	-7	1.1	4443	-5	-3	-3	-1
9	O=C(NC(=S)Nc1ccccc1Cl)c1csnn1	-24	3.4	8211	-1	2	-3	20
10	Cc1ccc(CNC(=S)NC2CCC(C(C)(C)C)CC2)cc1 (stereo not given)	-14	-8.7	5398	-6	0	9	-9
11	CCC(CC)C(=O)Nc1cccc(C(=O)NCc2ccco2)c1	-13	3.6	10370	2	7	8	7
12	O=C(CN1CCN(c2ccccc2)CC1)N1CCN(c2ccccc2)CC1	-20	-2.0	6288	-7	-7	8	0
13	CCCC(=O)N1CCC(Cc2ccccc2)CC1	-5	-2.0	2924	3	.	.	0
14	CCOc1ccccc1C(=O)NC(C)c1ccc(-n2ccnc2)cc1 (stereo not given)	-12	0.6	5527	-4	-6	-1	1
15	COc1ccccc1C(c1nnnn1C(C)(C)C)N1CCN(C(=O)c2ccco2)CC1 (stereo not given)	-30	5.7	3837	3	.	.	6
16	CN(C)CC(CCC(CN(C)C)C(O)(c1ccccc1)c1ccccc1)C(O)(c1ccccc1)c1ccccc1 (stereo not given)	.	-5.6	.	83*	20	6	4
17	CN1C(C)(C)CC(NC(=O)c2ccco2)CC1(C)C	-14	1.8	6464	4	2	4	1
18	CCc1cccc(CC)c1NC(=O)CO/N=C(\C)c1cccs1	1	.	2129	-4	.	.	.
19	COc1cccc(OC)c1C(=O)OCC(=O)Nc1ccc(OC(F)(F)F)cc1	-21	31	9457	6	8	6	-15
20	CSc1ccccc1NC(=O)c1onc(C)c1Cl	-14	8.0	6161	-29	-4	0	9
21	COc1ccc(Br)cc1C(=O)NCc1cccnc1	-8	4.6	4364	-7	14	18	-1
22	O=C(/C=C/c1ccco1)NC(=S)Nc1ccc(Cl)cn1	-12	-8.5	2896	-10	.	.	57
23	CC1C(=O)N2CCCc3cc(NC(=O)C4CCCCC4)cc1c32 (stereo not given)	-17	1.9	.	9	6	3	9
24	CC(=O)N1CCN(CC(=O)Nc2c(Cl)cc(Cl)cc2Cl)CC1	-16	5.6	10385	11	6	1	1
25	CC(C)CC(NC(=O)C(CC(C)C)NC(=O)OC(C)(C)C)C(N)=O (stereo not given)	-9	-13	3179	-4	14	7	-6
26	O=C(Nc1nc(=S)ss1)c1ccc(Cl)cc1Cl	-14	.	6524	3	.	.	.
27	O=C(CCC1CCCC1)N=C1SC2CS(=O)(=O)CC2N1c1ccccc1F (stereo not given)	-17	1.3	6164	1	-2	4	2
28	COc1ccc(NC(=O)CSCC(=O)N(C)CC(=O)Nc2cccc3ccccc23)cc1	-9	-2.9	.	-2	-8	1	-1
29	C/C(=N\NS(=O)(=O)c1ccc([N+](=O)[O-])cc1)c1c[nH]c2ccccc12	-1	.	6263	4	.	.	.
30	CC(=O)Nc1c(O)nc(SCC(=O)Nc2nnc(CC(C)C)s2)[nH]c1=O	0	0.0	2215	.	.	.	8
31	O=C(Nc1ccc(Cl)cn1)C1CCN(c2ncnc3c2nc2n3CCCCC2)CC1	-17	4.6	6123	14	-7	6	5
32	CC(C)C[C@@H](CSc1ccccc1)N1CCN(CCc2ccccc2)CCC1=O	-33	.	3080	16	.	.	.
33	Cc1ccc(NC(=O)c2cccc(OCc3c(C)noc3C)c2)cc1	-8	8.7	3453	-10	-1	0	8
34	Cc1ccccc1-c1nc(CS(=O)CC(=O)NCCCN(C)c2ccccc2)c(C)o1 (stereo not given)	-19	3.2	9328	-7	-5	15	-5
35	Cc1ccc(CC(=O)NCCS(=O)c2ccc(C)cc2)cc1 (stereo not given)	-25	6.9	3924	2	14	8	1
36	CCOC(=O)C1CCN(C(=O)C(=O)Nc2ccc3nc4n(c(=O)c3c2)CCCCC4)CC1	-25	-6.4	5170	-10	9	6	-4
37	Cc1ccc(/C=C/C(=O)N(Cc2cccs2)C2CCS(=O)(=O)C2)cc1 (stereo not given)	.	3.1	3332	-4	5	7	1
38	COc1ccc(NC(=O)c2ccc(NC(=O)c3ccncc3)cc2)cc1	-18	-1.0	4959	2	-2	6	11
39	Cc1ncc(N=Nc2ccccc2)c(-c2ccccc2)n1	-10	-1.9	4634	0	.	.	13
40	CN(C)C(=S)NC(=NCc1ccc([N+](=O)[O-])cc1)c1ccccc1	-7	-0.7	5664	4	-6	2	-1
41	CC1=CC(c2ccccc2)=NS(=O)(=O)N1	-21	0.0	3781	.	-9	-1	-4
42	O=C(Nc1cc2ccccc2oc1=O)c1ccccc1	57*	6.8	4474	23	16	3	2
43	CCOC(=O)C(C)Oc1cccc2c(=O)n(CC(=O)Nc3ccc(OCC)cc3)ccc12 (stereo not given)	-1	-14	4363	0	-3	-5	4
44	COc1ccc(NC(=O)CCC(=O)NCCO)cc1	3	8.4	2524	-4	11	6	3
45	CN(C)CCCN(C(=O)c1ccc(S(=O)(=O)N2CCCC2)cc1)c1nc2ccc(Br)cc2s1	-3	-5.8	5841	8	8	11	-5
46	COc1ccc2[nH]c3c(c2c1)CCN1C(=O)C(CC(=O)NCCc2ccccn2)C[C@H](C(=O)N2CCOCC2)[C@@]31CCC1CCCC1 (stereo not given in full)	-16	3.5	2893	.	-13	-1	-7
47	COC(=O)C1=C(C)N(Cc2ccccc2)C(=O)NC1c1ccc(Br)cc1 (stereo not given)	.	2.9	.	.	1	13	11
48	CCC(=O)Nc1cccc(C2=NOC3(C2)C[C@H](C(N)=O)N(C(=O)c2ccc(Cl)cc2)C3)c1 (stereo not given in full)	-23	.	2856	-2	.	.	.
49	Cc1ccc2c(c1)N(CC(=O)NC1CCC(C)CC1)C(=O)CO2 (stereo not given)	-17	-0.4	5399	-18	4	10	1
50	CCOc1ccc(NC(=O)c2ccc(CSc3nnc(C)s3)cc2)cc1	-43	2.8	2462	-5	2	-6	3

Further entries
item	SMILES	PrP 5UTR inh	RN4220 kill	Autofluor counter	BJeLR lethal	Mtb hypoxia inh	Mtb hypoxia inh growth	Sa ugtP lethal
51	O=C(CN1CCC(C(=O)c2cccc(Cl)c2)CC1)Nc1ccc(C(=O)O)cc1	3	1.7	3608	-6	0	4	-5
52	O=C(CSc1nc(-c2ccccc2)cc(C(F)(F)F)n1)N1CCOCC1	-25	1.6	15129	-2	0	3	4
53	CCC1CCCCN1CCn1c(=S)[nH]c2cc(OC)c(OC)cc2c1=O (stereo not given)	-10	7.4	5734	-5	-3	8	-1
54	COc1cc(/C=C/C(=O)OCC(=O)NCCc2ccc(S(N)(=O)=O)cc2)ccc1OCC#N	-6	4.5	5788	.	1	-2	4
55	O=C(NN=Cc1ccc([N+](=O)[O-])cc1)C1CC1	-8	2.8	3401	.	7	12	4
56	COC(=O)c1cc(NC(=O)CN2CCOCC2)cc(C(=O)OC)c1	-10	4.5	2989	5	2	2	5
57	COc1ccc(CCCC(=O)Nc2cc(C)ccc2OC)cc1	-11	1.7	3548	0	7	13	7
58	O=C1NC(Cc2c[nH]c3ccccc23)C(=O)N1Cc1ccc(CN2C(=O)NC(Cc3c[nH]c4ccccc34)C2=O)cc1 (stereo not given)	-7	.	2944	19	.	.	.
59	CCOC(=O)c1c(-c2ccc(C)o2)csc1NC(=O)CSc1ncn[nH]1	-14	2.8	11560	-8	5	4	30
60	CC(=O)Nc1cccc(NC(=O)c2ccc(C)c([N+](=O)[O-])c2)c1	-17	-0.5	1927	-7	4	11	6
61	COc1cccc(-c2nnc(-c3ccccc3NC(=O)c3ccc(C(C)(C)C)cc3)o2)c1	-10	0.7	.	-13	4	8	11
62	CCOc1ccccc1NC(=O)N1CCc2ccccc2C1	-20	1.1	5179	3	8	6	1
63	Cc1nn(-c2ccc(F)cc2)c(Cl)c1C=NNC(=O)c1cccc(S(=O)(=O)N2CCCC2)c1	.	4.6	.	.	0	2	2
64	CC1CCN(C(=O)COC(=O)c2cccs2)CC1	-67	-0.1	3866	.	7	1	-1
65	O=C(COC(=O)c1ccc2ncsc2c1)Nc1cc(Cl)ccc1F	-13	2.3	5047	.	6	2	7
66	COc1cccc(/C=C/c2ccc3cccc(O)c3n2)c1	-46	5.0	4210	24	-7	7	-20
67	Cc1ccc(NC2CCCN(C(=O)c3ccc(C)c(N4CCNC4=O)c3)C2)cc1C (stereo not given)	-14	2.8	4401	-1	2	-3	8
68	O=C(NNC(=O)c1cc(-c2ccc(Cl)cc2)nc2ccccc12)c1csc(N2CCOCC2)n1	-12	0.7	5673	4	1	0	-7
69	Cc1nc([N+](=O)[O-])c(C(=O)OCc2ccccc2Br)n1C	-3	12	3307	7	9	-1	12
70	CC(C)Oc1ccc(/C=C(\C#N)C(=O)NC2CC2)cc1	-10	2.2	3814	-7	7	18	-6
71	CCOC(=O)[C@@H]1[C@H]2COc3ccccc3[C@@H]2N2C(=O)N(c3ccc(Cl)cc3)C(=O)[C@]12C	-46	.	3623	1	.	.	.
72	CCN(CC)c1ncccc1C(=O)NCc1cccs1	-12	1.8	8688	2	8	4	3
73	CC(CCCO)=NNc1ccc([N+](=O)[O-])cc1[N+](=O)[O-]	.	10	.	.	3	9	14
74	COCCN(C(=O)C(C)C)c1nnc(-c2cccc(C)c2)s1	-9	-1.6	4016	-9	-1	9	3
75	CCOC(=O)CC(NC(=O)CCc1c(C)nc2nc(C)nn2c1C)c1ccc(C)cc1 (stereo not given)	-2	0.4	2318	-2	6	5	2
